# CSC inhib = cancer stem cell viability inhibitors, primary screen, luminescence. cancer stem cell-like cells viability. inhibition, % at 7.5 µM. actives 1.1% (n = 300,000). AID 2717, 2010;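 active = mean at 75% or more and at least half the replicates too; inconclusive = mean and replicates disagree; tested in HMLE shEcad cells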;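 also: 0% = median of negative and 100% = median of positive control wells; the first replicate is given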
# Rce1 inh = yeast Rce1p protease inhibitors, primary screen, biochemical, fluorescence, cell-free homogeneous; yeast membranes, quenched prenylated peptide cleavage fluorescence; CAAX prenyl protease 2 (Saccharomyces cerevisiae (strain ATCC 204508 / S288c)), Q03530; calls only; actives 0.27% (n = 290,000); AID 2563, 2010;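 active = fall in fluorescence gain of 50% or more versus controls, with final raw signal at or below 3038400; inconclusive = same 50% fall but final raw signal above 3038400; inactive = fall in fluorescence gain under 50%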;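 also: plate controls were neutral control wells for no effect and wells lacking membranes for full effect; tested at 10 µM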
# MT1-MMP act inh = blockers of MT1-MMP proenzyme processing, primary screen, HT1080 RFP-PRO-GFP cells, GFP/RFP fluorescence; Matrix metalloproteinase-14 (Homo sapiens), P50281; GFP/RFP ratio fluorescence, overnight; percent of plate control window, DMSO zero; GFP/RFP ratio change, % at 20 µM; actives 0.061% (n = 360,000); AID 651647, 2012;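 active = GFP/RFP ratio change of at least 30% with cell ATP level not reduced by more than half and red fluorescence within 50% of control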; also: strong numbers were not always called active
#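 Assay system: HT1080 RFP-PRO-GFP cells | Dosing: 20 µM single dose, 1% DMSO | Incubation: Cells overnight before dosing, compound overnight, 37 °C, 5% CO2 | Evaluation: GFP/RFP fluorescence ratio | Control set: DMSO-only wells and HT1080 RFP-L50D-GFP cell wells as references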
# PABP polyA inh = PABP poly(A) RNA binding inhibitors, primary screen, biochemical, fluorescence polarization, uHTS. actives 1% (n = 290,000). Polyadenylate-binding protein 1 (Homo sapiens), P11940. inhibition, % at 35 µM;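 active = 50% or more with normal probe brightness, or confirmed in later tests; inconclusive = above 50% with abnormal brightness, or retests that disagree; inactive = below 50% or failed in later tests; about a fifth of its hits are not listed in these tables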;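 also: calls also rest on retests at 20 µM and on dose response follow-up; controls were probe without protein and protein plus probe with vehicle; some compounds called inactive have numbers as strong as hits; many hits fall short of the cut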
# Target sequence (P11940 whole entry, looked up): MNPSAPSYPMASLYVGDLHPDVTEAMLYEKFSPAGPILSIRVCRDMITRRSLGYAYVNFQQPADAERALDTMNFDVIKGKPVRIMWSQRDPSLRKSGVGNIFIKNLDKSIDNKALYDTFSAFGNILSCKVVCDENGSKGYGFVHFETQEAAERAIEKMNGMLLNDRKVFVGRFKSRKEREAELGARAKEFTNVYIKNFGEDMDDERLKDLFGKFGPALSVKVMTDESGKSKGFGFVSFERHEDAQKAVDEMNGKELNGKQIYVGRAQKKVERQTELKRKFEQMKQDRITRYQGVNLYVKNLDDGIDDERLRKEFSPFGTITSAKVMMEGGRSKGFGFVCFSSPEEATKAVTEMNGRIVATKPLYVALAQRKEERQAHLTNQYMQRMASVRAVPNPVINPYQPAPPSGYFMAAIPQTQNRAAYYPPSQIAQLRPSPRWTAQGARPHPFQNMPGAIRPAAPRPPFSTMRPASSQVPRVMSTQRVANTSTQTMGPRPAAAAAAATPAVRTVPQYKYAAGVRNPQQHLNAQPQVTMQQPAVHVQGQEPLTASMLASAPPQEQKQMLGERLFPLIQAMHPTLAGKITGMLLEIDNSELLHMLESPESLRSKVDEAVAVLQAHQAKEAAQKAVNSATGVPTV
# Yeast UUG start = modulators of yeast start codon fidelity, primary screen, whole organism, S. cerevisiae, single point, plate reader | S. cerevisiae UUG-firefly luciferase reporter, luminescence/redox ratio | activity score, % at 18.7 µM | actives 0.13% (n = 350,000);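 active = replicate mean at a twofold rise or more, about +100% in these data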;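 also: firefly luciferase made from a UUG start codon reports start codon fidelity; reporter light over untreated wells divided by growth signal over untreated wells; some hits fall short of that in this replicate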
# eIF4H inh = human eIF4H binding inhibitors, primary screen, translation initiation inhibitor project, biochemical, uHTS, fluorescence polarization. Eukaryotic translation initiation factor 4H (Homo sapiens), Q15056. eIF4H fluorescence polarization binding assay. inhibition, % at 35 µM. actives 0.94% (n = 290,000). AID 2012, 2009;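 active = 50% or more with normal probe brightness, or confirmed in later tests; inconclusive = above 50% with abnormal brightness, or retests that disagree; inactive = below 50% or failed in later tests; about a fifth of its hits are not listed in these tables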;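 also: calls also rest on retests at 20 µM and on dose response follow-up; 0% = protein and probe with vehicle and 100% = probe without protein; strong numbers were not always called active; many hits fall short of the cut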
# HIV Env fusion = inhibitors of HIV-1 Env-driven cell-cell fusion, primary screen, HeLa-JRFL effector, CEM21 target cells, luciferase; inhibition, % at 12.3 µM; actives 1.1% (n = 360,000);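 active = mean replicate inhibition score of at least 50 and every replicate individually at or above 50; inconclusive = only one of the two criteria met; inactive = mean below 50 and not all replicates reaching 50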;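 also: 0% = plate neutral controls and 100% = maraviroc near 300 nM; one replicate is shown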
# eIF4H inh retest = further read-out of eIF4H inh, marked with its call; inhibition, %; compound at 20 µM; confirmation average;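 mean of two retest wells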
# PABP polyA inh retest = also measured in PABP polyA inh; calls as there; inhibition, %; compound at 20 µM; confirmation repeats;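 mean of two retest wells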
# MT1-MMP act inh RFP = also measured in MT1-MMP act inh; calls as there; RFP signal change, %; measured here: RFP expression control read;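 0 = vehicle wells; hits needed this value within 50% of zero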
# Active calls of the source: *; i = inactive; ? = inconclusive; . = not tested or not shown; & = joins results of further samples; ! = not confirmed by another sample. Some of the compounds tested; the hit share may differ from the screen's.
SMILES,CSC inhib,Rce1 inh,MT1-MMP act inh,MT1-MMP act inh RFP,PABP polyA inh,Yeast UUG start,eIF4H inh,HIV Env fusion,others
Cc1cnc(NC(=O)CN2CCCCC2)s1,-3,i,-1,3,4,-14,9,7,
COc1cccc(C(c2nnnn2C(C)(C)C)N2CCC3(CC2)C(=O)NCN3c2ccccc2)c1OC (stereo not drawn),.,.,-2,-3,.,4,.,-42,
CC1(C)OC(c2ccccc2)=C/C(=C/C=C2C(=O)NC(=O)NC2=O)O1,2,i,-126,2,1,.,?,-6,
CCC(=O)OC(Cc1ccccc1)(c1ccccc1)C(C)CN(C)C (stereo not drawn),.,.,0,6,.,-15,.,1,
CN1C(=O)N(C)C(=O)C(CCc2ccncc2)(CCc2ccncc2)C1=O,-1,i,1,6,-1,.,-1,-1,
C=CCn1c(O)c(C(C)=NCCC(c2ccccc2)c2ccccc2)c(=O)[nH]c1=O,7,i,-1,-11,7,.,-12,-6,
COc1ccc(C(c2c(O)c3ccccc3oc2=O)c2c(C)n(C)n(-c3ccccc3)c2=O)cc1 (stereo not drawn),2,i,1,-2,-20,.,-5,7,
CNc1cc(Cl)c2nonc2c1[N+](=O)[O-],.,i,3,-2,-10,.,23,i,
CN1CCc2cc3c(cc2[C@H]1[C@@H]1OC(=O)c2c1ccc1c2OCO1)OCO3,-10,.,1,5,.,-21,.,25,
Cc1csc(=N)n1Cc1ccccc1,5,i,1,4,-11,.,0,-1,
NS(=O)(=O)c1cccc(N2CCNCC2)c1,-1,i,-2,2,3,.,-10,-23,
CCOC(=O)C1=C(N)Oc2ccccc2C12C(=O)N(CC(=O)OC)C(CC(=O)OC)=C2C(=O)OC (stereo not drawn),-7,i,0,8,0,8,0,-18,
CCOc1ccc(CN2CCN(C(=O)Cc3ccccc3)CC2)cc1,.,i,4,-8,-1,-9,4,6,
Cc1cc(/C=C2\C(=O)NC(=O)N(Cc3ccco3)C2=O)c(C)n1-c1ccc(O)cc1,-1,i,-23,-2,31,22,81,-6,eIF4H inh retest=42;PABP polyA inh retest=20
Cc1cc(=O)oc2cc(OCC(=O)N3C[C@H]4C[C@@H](C3)c3cccc(=O)n3C4)ccc12,3,i,1,5,-2,-1,-7,.,
NC(Cc1ccc(F)cc1)c1csc(Nc2ncccn2)n1 (stereo not drawn),.,.,-13,-6,.,-6,.,-3,
Cn1c(O)c(C=Nc2ccc3c(c2)CCC3)c(=O)n(C)c1=O,-6,i,-1,4,-1,-11,-9,.,
CCCCCn1c(=O)c(C(=O)NCCc2ccccc2)c(O)c2ccccc21,52,i,-7,-6,-1,-4,-2,10,
CCCC/C(=N\O)c1c[nH]c2ccccc12,-13,i,4,0,-10,-32,2,.,
Cc1cccc(C2=NCC(=O)N(CC(=O)NCc3ccco3)c3sc4c(c32)CCCC4)c1,-5,i,-3,-10,2,7,3,.,
CCOC(=O)c1c(C)n(COCCO)c2ccc(O)cc12,-9,i,1,0,7,-21,-4,-8,
Cc1nc2ccc(Cl)cc2c(=O)n1-c1ccc([N+](=O)[O-])cc1,-6,i,0,1,1,-17,2,7,
NS(=O)(=O)c1ccc(-c2ccc(C=C3C(=O)NC(=O)NC3=O)o2)cc1,-25,i,-5,3,19,-5,?,-18,
Cn1c(O)c(C=Nc2ccccc2-c2ccccc2)c(=O)n(C)c1=O,-7,i,3,2,-3,.,-5,-4,
COC(=O)C1=C(c2ccc(S(C)(=O)=O)cc2)C[C@@H]2CC[C@H]1N2C(=O)NCC1CC1,-14,i,1,3,.,-3,.,21,

# Overlap with the part before: two entries, followed by the next part.
SMILES,CSC inhib,Rce1 inh,MT1-MMP act inh,MT1-MMP act inh RFP,PABP polyA inh,Yeast UUG start,eIF4H inh,HIV Env fusion,others
Cn1c(O)c(C=Nc2ccccc2-c2ccccc2)c(=O)n(C)c1=O,-7,i,3,2,-3,.,-5,-4,
COC(=O)C1=C(c2ccc(S(C)(=O)=O)cc2)C[C@@H]2CC[C@H]1N2C(=O)NCC1CC1,-14,i,1,3,.,-3,.,21,
Fc1ccc(CCNCc2ccccc2Cl)cc1,5,i,3,2,5,-20,-9,.,
Cc1ccc(CN2C(=O)CN=C(c3ccccc3)c3ccccc32)cc1,15,i,-1,1,37,7,-6,-12,
CC(C)Oc1ccc(C2(C#N)CC[N+](C)(C)CC2)cc1,0,i,-11,6,-9,.,-7,-82,
COc1cccc(NC(=O)N2CCC3(CC2)OCCO3)c1,-1,i,0,1,-5,.,9,-31,
COc1ccc(CN2C(=O)NC(=O)/C(=C/c3ccc([N+](=O)[O-])s3)C2=O)cc1,18,i,-47,38,23,-2,31,6,
O=C1NC(=O)N(C2CCCCC2)C(=O)C1C1c2ccccc2C(=O)N1Cc1ccccc1 (stereo not drawn),-5,i,-1,5,23,-10,14,.,
COc1ccc(-n2nnnc2C(c2cccc3ccccc23)N2CCC(n3c(=O)[nH]c4ccccc43)CC2)cc1 (stereo not drawn),.,.,-2,-13,.,-9,.,-113,
COC(=O)C1=C(c2ccc(F)cc2OCc2ccccc2)C[C@@H]2CC[C@H]1N2C(=O)NCc1ccc([N+](=O)[O-])cc1,20,.,1,-16,.,-10,.,48,
C=CCn1c(O)c(C(C)=NCc2cc(OC)cc(OC)c2)c(=O)[nH]c1=O,66,i,-31,-18,-10,-21,-1,30,
O=c1c2ccccc2nc(/C=C/c2ccc(O)cc2)n1-c1ccc(O)cc1,14,i,-149,3,2,-3,6,-2,
CCn1c(O)c(C=NCCN2CCOCC2)c(=O)n(CC)c1=S,-2,i,-4,-1,-15,-8,31,-3,
CC(=O)N1CCN(CC(=O)Nc2ccc(C#N)c(Cl)c2)CC1,-2,i,0,-1,-8,-7,-1,4,
COc1ccc(C=O)cc1,-9,.,-2,5,.,-2,.,.,
CC(C)n1nnnc1CN1CCN(C)CC1,-4,i,-6,3,4,-13,1,.,
O=C(Cc1ccccc1)N1CCN(Cc2c[nH]c3ccccc23)CC1,-8,i,3,-2,-13,-6,-10,-47,
COc1ccccc1OCC(=O)N1CCCC(N2CCN(c3ccc(F)cc3)CC2)C1 (stereo not drawn),-14,i,-2,-1,-3,-13,1,12,
COc1ccc(CC2C(=O)N(c3ccccc3)C(=O)N(c3ccccc3)C2=O)c(OC)c1,.,i,-6,1,21,-10,9,-12,
Cc1ccccc1-c1nc2ccccc2c(=O)n1C,-7,i,-1,0,10,5,3,-1,
O=C(c1cc2c(s1)CCCC2)N1CCC2(CC1)OCCO2,-13,i,-10,1,0,5,-8,-7,
C=CCn1c(O)c(C=NCCCn2ccnc2)c(=O)[nH]c1=O,-3,i,-3,-2,-4,.,4,-2,
Cc1cccc([N+](=O)[O-])c1,-17,.,0,6,.,4,.,.,
Cc1cccc(-n2c(O)c(/C=N/N3CCOCC3)c(=O)[nH]c2=S)c1,12,i,0,4,-3,.,-11,-9,
COc1ccc(OC)c(CNCCc2ccc(OC)c(OC)c2)c1,-15,i,-3,1,2,9,6,16,
S=P(NC1CCCCC1)(N1CC1)N1CC1,5,i,-7,-1,10,-22,16,21,
CN(C)S(=O)(=O)c1cc(NC(=O)C[N+]23CCN(CC2)CC3)ccc1Cl,2,i,2,4,25,-23,1,9,

# The list continues:
SMILES,CSC inhib,Rce1 inh,MT1-MMP act inh,MT1-MMP act inh RFP,PABP polyA inh,Yeast UUG start,eIF4H inh,HIV Env fusion,others
CCOc1ccccc1N1C(=O)NC(=O)/C(=C/c2ccc3c4c(cccc24)CC3)C1=O,-12,i,-8,2,?,-15,?,.,
Cc1cccc(-n2c(C)nc3ccccc3c2=O)c1C,3,i,1,3,75*,.,-1,-16,
COC(=O)C1=C(c2ccc(OC)c(OC)c2)C[C@@H]2CC[C@H]1N2C(=O)N1CCC(C)CC1,6,.,6,-1,.,-2,.,-2,
CC(=O)c1cn(Cc2ccc(C#N)cc2)c2ccccc12,.,i,-2,-9,7,-11,-4,15,
COC(=O)C1=C(c2ccc(OCc3ccccc3)cc2)C[C@@H]2CC[C@H]1N2C(=O)NCc1ccc(N(C)C)cc1,25,.,9,-10,.,-9,.,-156,
CCOC(=O)COc1ccc2c(c1)c(C(C)=O)c(C)n2Cc1ccccc1,-3,i,2,4,-2,9,-12,15,
Cc1cccc(-n2c(O)c(C=Nc3ccc(Br)cn3)c(=O)[nH]c2=O)c1,-3,i,-27,-7,?,.,?,19,
CN1CCN(C(=S)SCC(=O)Nc2ccc(Cl)cc2C(=O)c2ccccc2)CC1,8,i,-1,-14,1,-6,1,-19,
Cc1cc(C=C2C(=O)NC(=O)NC2=O)c(C)n1-c1cccnc1,-9,i,-1,1,-6,-14,7,-15,
COc1ccn(C)c(=O)c1C#N,0,i,0,2,-3,-3,3,.,
C[C@H]1CCC/C=C/[C@@H]2C[C@H](O)C[C@H]2[C@H](O)/C=C/C(=O)O1,100*,.,2&0,-27&-26,.,-37&-38,.,94*!,
COC(=O)C1=C(c2cccc(C#N)c2)C[C@@H]2CC[C@H]1N2C(=O)NCCc1ccccc1,0,.,-2,-1,.,-21,.,-14,
CC(C)CC(NC(=O)C1CCCCC1)C(=O)N1CCC2(CC1)OCCO2 (stereo not drawn),-18,i,-4,7,8,-16,6,-29,
O=C(Cc1ccccc1)OCc1ccccc1,-9,.,-1,8,.,-11,.,.,
O=C(CCS(=O)(=O)c1ccc(Br)cc1)N1CCC2(CC1)OCCO2,-21,.,-1,-1,-3,-5,-7,.,
Nc1ncc2[nH]cnc2n1,-8&3,i,2&-1,3&7,.,-17&-8,.,3&5,
CN(C)C(=Nc1ccccc1)P(=S)(N(C)C)N(C)C,-10,i,-2,5,14,.,-2,13,
CN1C(=O)C(=Cc2ccccc2Oc2ccc(Cl)c(F)c2)C(=O)N(C)C1=O,8,i,9,5,18,-11,-23,.,
CN1CCN(C(=O)COc2ccc(S(=O)(=O)Nc3ccc(F)cc3)cc2)CC1,36,i,0,0,1,1,2,10,
CC(=O)OC1N=C(c2ccccc2Cl)c2cc(Br)ccc2N(C)C1=O (stereo not drawn),-1,i,-2,2,6,.,12,16,
Cc1ccc2[nH]c(C)c(CCNCc3cccnc3)c2c1,16,i,-1,4,27,-19,12,-9,
COc1ccc(CN2CCN(C(=O)Cc3ccccc3)CC2)cc1Br,-7,i,2,-1,12,-5,17,31,
O=C(N/N=C\C1C(=O)NC(=S)N(c2ccccc2)C1=O)c1ccc(O)cc1 (stereo not drawn),-14,.,12,6,0,-21,1,21,
COC(=O)C1=C(c2cc3ccccc3s2)C[C@@H]2CC[C@H]1N2C(=O)NCCNC(C)=O,-3,i,0,0,.,-25,.,20,
COc1ccc(-n2nnnc2C(CCc2ccccc2)N2CCC3(CC2)C(=O)NCN3c2ccccc2)cc1 (stereo not drawn),.,.,-8,-13,.,-10,.,-3,

# Screening data: PubChem BioAssay, several laboratories
